# gsp antagonist: antagonizes gsp, the McCune-Albright syndrome mutation; gsp-mutant cells, cAMP HTRF, 30 min; control for the full effect not named in the record; 340,000 compounds, 0.4% hits; AID 624288; Potency, µM (series often up to 76.9 µM), for inactives: at the top dose activity change, negative = inhibition, most hits filed as inhibitors; active = falling curve of any shape with a large fitted effect; inconclusive = falling curve, mostly with a smaller effect; inactive = flat or rising curve; cell line not stated here;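 also: intracellular cAMP measured with PDE inhibitor Ro 20-1724 present during compound exposure; potency is read from the fitted curve at half-maximal effect; % is scaled to controls: 0 for no effect and ±100 for the full control effect; nearly all actives have a fitted effect of over 65% in size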
#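 HTRF cAMP measurement after 30 min RT detection following 30 min, 37C compound treatment alongside […] (added as 300 uM solution) in G418-selected cells seeded at 2000/well and grown 16–24 h.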
# TRPV1 PAM: potentiators of human vanilloid receptor 1 (TRPV1). Q8NER1. TRPV1-expressing cells, Fluo-8 calcium influx, capsaicin EC20 potentiation; host cell line not named in the record; control for the full effect not named in the record. potentiation, % at 8.33 µM. 320,000 compounds, 0.02% hits. AID 540277; active means potentiation above 80%; inconclusive means 30% to 80%; inactive means below 30%; also: 0% is about no effect
# Target sequence (Q8NER1 whole entry, looked up): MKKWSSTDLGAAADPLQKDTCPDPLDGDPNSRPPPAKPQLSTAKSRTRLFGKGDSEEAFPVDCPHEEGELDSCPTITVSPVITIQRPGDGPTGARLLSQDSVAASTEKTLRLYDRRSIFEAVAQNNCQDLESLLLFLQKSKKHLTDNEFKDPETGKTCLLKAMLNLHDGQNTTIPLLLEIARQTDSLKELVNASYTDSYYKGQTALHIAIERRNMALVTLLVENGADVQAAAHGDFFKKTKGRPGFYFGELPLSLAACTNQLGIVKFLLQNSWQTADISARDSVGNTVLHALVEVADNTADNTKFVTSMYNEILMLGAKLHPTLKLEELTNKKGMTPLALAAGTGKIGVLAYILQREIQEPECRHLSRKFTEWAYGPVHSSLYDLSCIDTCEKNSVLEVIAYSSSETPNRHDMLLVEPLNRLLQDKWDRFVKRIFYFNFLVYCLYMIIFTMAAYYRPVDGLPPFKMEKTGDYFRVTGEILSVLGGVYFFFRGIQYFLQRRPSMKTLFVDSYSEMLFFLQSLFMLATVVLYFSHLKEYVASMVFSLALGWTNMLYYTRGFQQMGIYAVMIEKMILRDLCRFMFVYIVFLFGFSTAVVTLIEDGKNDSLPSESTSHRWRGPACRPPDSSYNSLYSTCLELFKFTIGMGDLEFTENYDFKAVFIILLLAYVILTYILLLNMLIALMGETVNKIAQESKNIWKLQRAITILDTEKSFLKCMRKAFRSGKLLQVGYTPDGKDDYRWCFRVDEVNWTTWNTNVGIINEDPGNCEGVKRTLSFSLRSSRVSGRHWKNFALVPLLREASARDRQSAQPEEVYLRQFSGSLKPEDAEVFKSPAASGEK
#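 TRPV1-expressing cells were cultured overnight at 35.5C and loaded with Fluo-8 calcium dye for 40 to 90 min at room temperature. After a 10 s baseline, compound was added and calcium influx was read kinetically for 3 min (ex 480/em 520 nm).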
# Menin-MLL FL inh: menin-MLL binding inhibition, fluorescein peptide | Fluorescence polarization, fluorescein-MLL peptide displacement from menin | FP activity change, % at 61.4 µM | 290,000 tested, under 10 active | AID 1766; inconclusive = falling polarisation curve, or a change in total fluorescence; inactive = total fluorescence flat and polarisation flat or rising; no compound was filed as active; the % refers to the polarisation; negative = inhibition;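 also: % of control where 0% means no effect; inhibitors lower the polarisation; unlabelled MLL peptide was the positive control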
# ClpP mod: qHTS Assay for Activators of ClpP | Potency, µM (top dose mostly 57.5 µM), inactives show at the top dose activity change, negative = active | purified B. subtilis ClpP, FRET peptide cleavage, 20 min | ATP-dependent Clp protease proteolytic subunit (Bacillus subtilis (strain 168)), P80244 | AID 651965, 2013 | 340,000 compounds, 1.9% hits; active = well fitted falling curve with a large enough effect; inconclusive = small, poorly fitted or top-dose-only effect; inactive = no such curve, though single readings can be large or run the other way; also: potency is read from the fitted curve at half-maximal effect; the source files actives as falling curves though it sought activators and does not explain the sign; nearly all actives have a fitted effect of over 65% in size; many hits overshoot -100%
# Target sequence (P80244 whole entry, looked up): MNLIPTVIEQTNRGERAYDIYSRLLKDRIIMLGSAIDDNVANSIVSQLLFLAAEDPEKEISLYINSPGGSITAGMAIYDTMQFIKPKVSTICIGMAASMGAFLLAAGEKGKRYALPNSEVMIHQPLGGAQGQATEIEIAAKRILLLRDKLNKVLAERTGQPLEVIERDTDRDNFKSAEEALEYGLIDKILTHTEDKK
#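 ClpP 10 microg/mL final, pH 8 Tris/KCl buffer with BSA, glycerol, Tween-20; compound pinned in; FRET-FV substrate; RT 20 min; Ex320/Em430; ΔFRET vs ADEP 5.8 microM, DMSO, no enzyme.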
# Sfp PPTase inh: inhibitors of Bacillus subtilis Sfp phosphopantetheinyl transferase. Biochemical Sfp PPTase activity, qHTS. Potency, µM, for the others: max response, negative = inhibition, hits mostly inhibitors. 310,000 compounds, 3.5% hits; active = well fitted inhibition curve with a large enough effect; inconclusive = small, poorly fitted or top-dose-only effect, or another doubt; inactive = no such curve, though single readings can be large or run the other way;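 also: the enzyme is Sfp with the accession as filed and its product quenches rhodamine fluorescence; potency is read from the fitted curve at half-maximal effect; 0% = enzyme reaction without inhibitor and -100% = no enzyme wells; top concentration of the series not given in the record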
#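 Reaction rates are the 30-min fluorescence difference (ex 525, em 598 nm) in wells containing 15 nM Sfp, 5 uM rhodamine-CoA and 12.5 uM BHQ-2-YbbR at pH 7.6 with 10 mM MgCl2.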
# D2 potentiator: human D2 receptor positive allosteric modulation. AID 624464. 360,000 compounds, 0.23% hits. P14416. potentiation, % (concentration not given with the values). DiscoveRx D2 beta-arrestin cells, luminescence, 90 min; 100% = 57 uM dopamine signal; active = potentiation of 50% or more; inconclusive = 30% to 50%; inactive = 30% or less;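 also: tested on top of an EC20 dose of dopamine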
#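 D2 cells co-treated with compound plus 50 nM dopamine (EC20) for 90 min at 37 deg C to detect potentiation. Beta-arrestin recruitment was read as enzyme-fragment luminescence after 1 h at ambient temperature. Full response was set by 57 uM dopamine.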
# gsp agonist: activates gsp, the McCune-Albright syndrome mutation; gsp mutant cells, cAMP HTRF, 30 min; control for the full effect not named in the record; Potency, µM (top dose mostly 76.9 µM), inactives show at the highest dose activation (cAMP increase), actives largely listed as activators; 340,000 compounds, 0.13% hits; active = well fitted activation curve with a large enough effect; inconclusive = small, poorly fitted or top-dose-only effect, or another doubt; inactive = no such curve, though single readings can be large or run the other way; cell line not stated here;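 also: phosphodiesterase inhibitor Ro 20-1724 added with compounds to block cAMP breakdown; potency is read from the fitted curve at half-maximal effect; nearly all actives have a fitted effect of over 60% in size; about a fifth of the inactives were tested at one dose only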
#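 Cells in DMEM/10% FBS with G418 were pretreated with compounds in DMSO plus […] (300 uM stock) for 30 min at 37C. cAMP was measured by HTRF (cAMP-d2 plus anti-cAMP antibody-K) after 30 min at room temperature.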
# * = called active by the depositor; ? = inconclusive; . = not tested or not shown; [ ] = remark or other dose. Rows are unselected; overall some 5.1% were active at least once.
SMILES,gsp antagonist,TRPV1 PAM,Menin-MLL FL inh,ClpP mod,Sfp PPTase inh,D2 potentiator,gsp agonist
COc1ccccc1N1CCN(C(=O)Cn2c(=O)[nH]c3ccsc3c2=O)CC1,-6%,1,4.1,0.2%,20%,-5,5%
COc1ccc(/C=N/NC(=O)c2cc(-c3cccc(C)c3)nc3ccccc23)cc1O,-21%,.,.,.,.,-4,12%
Cc1ccc(C(=O)Oc2ccc(N3C(=O)CCC3=O)c(C)c2)cc1,-8%,-16,-2.5,.,12%,-5,0%
O=C(Cc1ccc(Cl)cc1)NC(=S)Nc1ccccc1N1CCOCC1,14%,7,2.9,-0.9%,16%,-16,-3%
O=C(Nc1ccccc1)C1C2/C=C\CCCCC21 (stereo not given),19%,-15,-0.4,0.7%,20%,-7,2%
Cc1ccc(C)c(NC(=O)Nn2cnnc2)c1,5%,10,-4.4,-2.2%,-1%,-8,-20%
CC1CC(C)CN(CCCNC(=O)CN2C(=O)c3cccnc3Oc3ccccc32)C1 (stereo not given),16%,-2,1.3,0.3%,16%,-30,31%
O=C(NNC(=O)c1ccc(O)c(Cl)c1)c1cccc(S(=O)(=O)N2CCOCC2)c1,3%,4,.,-2.7%,.,4,-2%
CNc1c(NS(=O)(=O)c2ccc(Cl)cc2)c(=O)oc2ccccc12,2%,-4,-2.7,.,0%,0,-4%
O=C1C(=Cc2cccs2)Oc2ccccc21,13%,.,.,.,.,-1,-26%
CC(=O)OC(C(=O)NC1CCCCC1)c1ccc(Cl)cc1 (stereo not given),-1%,-4,-0.4,1.1%,14%,-20,6%
CCOC(=O)N1CCN(C(=O)c2ccc3c(c2)NC(=O)/C(=C\c2cccc(C)c2)S3)CC1,-24%,-9,0.5,-12%,-14%,-4,-32%[inhibitor]
Cc1c(NC(=O)/C=C/c2cccs2)c(=O)n(-c2ccccc2)n1C,4%,3,2.6,0.9%,13%,-5,10%
N#CC(C(=O)O)=C1CCCC1,16%,-2,0.1,0.8%,14%,-12,47%
COc1ccc(S(=O)(=O)Nc2ccc3ccccc3c2)cc1C,?,14,2.0,-0.2%,-6%,-3,-5%
CC(=O)N1N=C(c2ccccc2)OC1(C)CC(=O)Nc1ccccc1 (stereo not given),-12%,-10,-0.9,-7.8%,7%,-7,-10%
COc1ccccc1-c1nnc(SCC(=O)N2CCOCC2)n1-c1ccccc1,-2%,-6,-2.4,-5.1%,7%,-23,-32%[inhibitor]
c1ccc(CCn2nnnc2C(c2cccs2)N2CCN(Cc3ccc4c(c3)OCO4)CC2)cc1 (stereo not given),-11%,-6,3.7,-1.9%,9%,-22,-34%[inhibitor]
Cc1ccnc(N2CCC(C(=O)Nc3ccc4c(c3)OCO4)CC2)n1,7%,-4,5.1,-13%,-2%,-16,-3%
COc1cc(/C=N/NC(=O)c2cnccn2)ccc1O,-5%,7,4.4,-2.2%,-6%,-5,-1%
Cc1nc2ccccn2c1C(=O)CSc1ccc(Cl)cc1Cl,1%,6,-0.4,0.0%,16%,5,-3%
N#Cc1ccc2ccn(CC(=O)NC3CCCCC3)c2c1,17%,0,-2.2,?,4%,-6,-10%
C[C@@H](NC(=O)[C@@H]1Cc2ccccc2CN1C(=O)OC(C)(C)C)C(=O)NC1CCCCC1,0%,-10,.,.,1%,-11,-1%
O=C1NC(=O)C(Cc2ccc(Cl)cc2)(c2ccccc2)N1 (stereo not given),7%,.,.,.,.,-2,4%
COCCN(C(=O)CSc1ncccn1)c1c(N)n(Cc2ccccc2)c(=O)[nH]c1=O,9%,1,.,-12%,.,-29,3%[15.4 µM]
CC(=O)Nc1ccc(NC(=O)CSc2ncc(C(=O)Nc3ccc(F)cc3)c(=O)n2C)cc1,1%,13,.,-6.2%,.,-2,-3%
C/C(=N\Nc1ccc(Cl)c(C(=O)O)c1)c1ccc(Br)s1,0%,21,2.0,.,-24%,-4,?
Cc1ccc(NC(=O)C2(S(=O)(=O)c3ccc(C)cc3)CC2)cc1,3%,3,2.8,-2.3%,0%,-13,-9%
CC(NC(=O)c1ccc(S(C)(=O)=O)cc1)c1cccc2ccccc12 (stereo not given),-21%,-1,1.1,1.2%,9%,-7,7%[15.4 µM]
O=C(COC(=O)c1ccc(S(=O)(=O)Nc2ccccc2)cc1)NCCC1=CCCCC1,-12%,1,3.5,.,7%,-7,4%[15.4 µM]
CCOC(=O)c1c(NC(=O)N/N=C/c2ccc(O)c(OC)c2)sc(C(C)=O)c1C,.,-1,?,.,6%,.,.
COc1ccc(C(=O)n2cnc(N)n2)cc1,-8%,5,-1.8,-1.3%,15%,-5,?
CCOc1ccc(/C=C/C(=O)c2ccc(-c3ccccc3)cc2)cc1,1%,15,-2.3,-4.2%,2%,-5,-2%
CC(=O)Nc1cc[n+](CC(=O)c2ccc(Cl)cc2)cc1,13%,1,-0.4,.,4%,-6,?
N#Cc1c(NC(=O)COC(=O)C2CC3C=CC2C3)oc(-c2ccccc2)c1-c1ccccc1 (stereo not given),?,-14,1.1,-8.5%,4%,-2,-38%
CCSc1cnn(-c2ccccc2)c(=O)c1SCC,14%,-9,1.3,-1.2%,8%,2,?
Cc1ccc(NC(=O)CN(C)C(=O)c2ccc(-n3cncn3)c([N+](=O)[O-])c2)cc1,14%,-4,.,.,.,14,14%[15.4 µM]
CCn1c(SCc2nc3ccccc3[nH]2)nnc1-c1ccccc1OC,1%,10,-1.1,-2.1%,-14%,0,?
CCC(C)NS(=O)(=O)c1ccc(NC(=O)C2CCN(C(=O)c3ccco3)CC2)cc1 (stereo not given),.,-6,-0.4,.,2%,3,-7%[15.4 µM]
O=C1C(=O)N(CCN2CCOCC2)C(c2ccccn2)/C1=C(/O)c1ccc(F)cc1 (stereo not given),7%,1,-0.5,-1.1%,56µM*,4,-73%[inhibitor]
CCC1Nc2ncnc(N3CCN(c4ccccc4)CC3)c2N(Cc2ccc(C)cc2)C1=O (stereo not given),-4%,22,.,-4.7%,.,-37,.
Cn1ccnc1SCC(=O)Nc1cc(S(=O)(=O)N2CCOCC2)ccc1Cl,16%,8,.,1.9%,10%,-18,?
OC(c1ccccc1)C(O)C(c1ccccc1)N1CCCCC1 (stereo not given),0%,.,.,.,.,1,?
COC(=O)c1ccc2c(C)c(C3(O)CCCCC3)[nH]c2c1,2%,.,.,4.2%,.,0,.
Cc1cccc(C(=O)NCCC(=O)Nc2ccc(F)c([N+](=O)[O-])c2)c1,-8%,12,5.7,.,12%,-7,20%[15.4 µM]
O=C(Cc1ccccc1F)Nc1ccccc1N1CCCC1,-2%,?,.,-0.5%,14%,0,-4%
COc1ccc(NC(=O)c2ccc3c(c2)NC(=O)CS3)cc1S(=O)(=O)Nc1ccc(Br)cc1,-2%,0,-3.0,0.1%,18µM*,-2,-180%[inhibitor]
COc1ccc(NC(=S)N(CCN2CCOCC2)C2CCN(C(C)=O)CC2)cc1Cl,-2%,4,1.4,.,-4%,2,?
O=C(c1cccc(F)c1)N1CCN(Cc2ccc3c(c2)OCO3)CC1,-9%,-24,-0.3,1.5%,?,-11,16%[15.4 µM]
O=C(Nc1ccc(-c2csc(Nc3cccc(C(F)(F)F)c3)n2)cc1)c1ccccc1,-5%,-21,-2.1,?,23%,-16,.
COc1ccc(C(CNC(=O)C(C)(C)Oc2ccc(Cl)cc2)N2CCCCC2)cc1 (stereo not given),0%,-18,.,-2.0%,17%,-45,-15%
O=C(COC(=O)/C=C/c1ccco1)NC1CCCCC1,9%,-27,.,1.1%,.,-4,10%
Nc1cc(C(=O)O)ccc1N1CCCCCC1,-12%,8,1.8,-7.9%,15%,-5,19%
COC(=O)Nc1ccc(S(=O)(=O)N2CCCC(C(=O)N3CC(C)OC(C)C3)C2)cc1 (stereo not given),4%,-1,-2.0,-3.0%,2%,1,14%
O=C(CSc1nnc(-c2ccccc2)n1-c1ccccc1)NCc1ccco1,-14%,19,-0.3,1.8%,15%,-18,-4%
CCOC(=O)C1=C(N)Oc2cc(O)ccc2C1c1ccc(Br)cc1 (stereo not given),-2%,7,15,-0.2%,22%,-7,-21%
Cc1c(NC(=O)/C(C#N)=C/c2ccc(-c3cccc(Cl)c3)o2)c(=O)n(-c2ccccc2)n1C,-19%,6,-0.8,-1.8%,-9%,-20,-1%
O=C1CN(C(=O)COC(=O)CCC(=O)c2ccc(Cl)cc2)c2ccccc2N1,1%,.,.,0.4%,.,-19,1%[15.4 µM]
CC(NC(=O)c1ccccc1NS(=O)(=O)c1ccc(CCC(=O)O)cc1)c1ccccc1 (stereo not given),-10%,11,.,28µM*,9%,-7,?
CC(C)Cn1c(N)c(C(=O)COC(=O)CCNS(=O)(=O)c2ccccc2)c(=O)n(C)c1=O,?,7,.,1.5%,.,-7,13%[15.4 µM]
# Additional records follow.
SMILES,gsp antagonist,TRPV1 PAM,Menin-MLL FL inh,ClpP mod,Sfp PPTase inh,D2 potentiator,gsp agonist
CCOC(=O)C1CCN(C(=O)COC(=O)CCOc2ccc(C)cc2)CC1,9%,-3,1.4,0.1%,-3%,-2,4%
O=C(c1n[nH]c(=O)c2ccccc12)N1CCN(c2ccc(F)cc2)CC1,-8%,-5,-0.6,-1.1%,16%,-15,-13%
N=c1ncn(CC(O)CO)c2nc(N3CCOCC3)[nH]c12 (stereo not given),-1%,-4,4.1,0.8%,6%,-12,-1%
OCCn1c(-c2ccc3c(c2)OCO3)csc1=Nc1ccccc1,28µM*,-5,3.2,-0.2%,-12%,3,-23%
Brc1ccc2nc(CSc3ncn[nH]3)cn2c1,9%,0,1.2,-1.5%,9%,3,?

# Record cards, as listed above. Order of values: gsp antagonist, TRPV1 PAM, Menin-MLL FL inh, ClpP mod, Sfp PPTase inh, D2 potentiator, gsp agonist
# Profile of O=C(CSc1nnc(-c2ccccc2)n1-c1ccccc1)NCc1ccco1 → -14%, 19, -0.3, 1.8%, 15%, -18, -4%
# Profile of O=C(c1cccc(F)c1)N1CCN(Cc2ccc3c(c2)OCO3)CC1 → -9%, -24, -0.3, 1.5%, ?, -11, 16%[15.4 µM]
# Profile of O=C(COC(=O)/C=C/c1ccco1)NC1CCCCC1 → 9%, -27, ., 1.1%, ., -4, 10%
